MARV entry inh: Marburg virus entry inhibition | Marburg virus pseudotyped entry inhibition, cell reporter; control for the full effect not named in the record; about a third of the inactives were read at about 46 µM | Potency, µM (titrated, usually from 37.8 µM), for inactives: top-dose activity change, negative = inhibition, usual class: inhibitors | 300,000 compounds, 1.8% hits; active = well fitted inhibition curve with a large enough effect; inconclusive = small, poorly fitted or top-dose-only effect, or effect the other way; inactive = flat fitted curve, though single readings scatter; tested in HEK293 cells; about a fifth of its hits are not listed in these tables; further: on the % scale 0 is the no-effect control and ±100 the full control effect; luciferase read-out
2A StopGo: FMDV 2A StopGo reporter, luciferase signal. Potency, µM (doses to about 57.9 µM), without a hit: at the highest dose signal change, negative = less light. 410,000 compounds, 1.2% hits. human cells with a luciferase reporter of 2A StopGo recoding; control for the full effect not named in the record; active = well fitted falling curve with a large enough effect; inconclusive = small, poorly fitted or top-dose-only effect; inactive = no such curve, though single readings can be large or run the other way; tested in HEK293T cells; further: on the % scale 0 is the no-effect control and ±100 the full control effect; nearly all actives have a fitted effect of over 45% in size; luciferase light after 4 h
Cruzain inh noDet: blocks cruzain activity in detergent-free assay; P25779; purified cruzain, Z-FR-AMC fluorescence, no detergent; Potency, µM, for the others: max response, negative = inhibition, hits mostly inhibitors; 200,000 compounds, 2.3% hits;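 further: plate controls were enzyme without inhibitor for no effect and buffer without enzyme for full effect; nearly all actives have a fitted effect of over 40% in size; top concentration of the series not given in the record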
Target sequence (P25779 123-467 limits assumed): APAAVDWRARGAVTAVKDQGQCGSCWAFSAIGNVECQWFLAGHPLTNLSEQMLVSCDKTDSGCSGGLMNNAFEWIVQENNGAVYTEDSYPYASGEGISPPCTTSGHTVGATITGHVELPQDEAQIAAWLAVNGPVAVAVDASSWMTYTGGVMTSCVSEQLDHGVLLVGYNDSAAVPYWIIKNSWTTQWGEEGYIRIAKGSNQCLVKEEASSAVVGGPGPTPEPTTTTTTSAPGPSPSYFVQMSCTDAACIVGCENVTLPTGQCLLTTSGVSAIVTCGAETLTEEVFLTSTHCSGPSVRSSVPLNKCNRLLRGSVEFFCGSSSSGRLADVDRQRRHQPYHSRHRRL
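Purified cruzain at 1.5 nM, pre-incubated 15 min with compound at room temperature in 100 mM sodium acetate pH 5.5, 5 mM DTT, 0.00005% Triton X-100. Reaction started with 2 uM Z-FR-AMC; AMC fluorescence increase over 60 s gives rate.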
Cruzain inh Det: cruzain (T. cruzi) inhibition with detergent. Potency, µM, for inactives: max response, negative = inhibition, most hits filed as inhibitors. purified cruzain, Z-FR-AMC fluorescence, 0.01% Triton. 200,000 compounds, 0.43% hits;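 further: plate controls were neutral wells for no effect and buffer without enzyme for full effect; nearly all actives have a fitted effect of over 40% in size; top concentration of the series not given in the record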
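Steps: dispense cruzain (1.5 nM final) in acetate buffer pH 5.5 with DTT and 0.01% Triton X-100; pin-transfer compounds; incubate 15 min RT; add Z-FR-AMC (2 uM final); read fluorescence every 30 s, using the 60 s intensity change.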
RE007 growth inh: less growth of the S. pombe RE007 Vpr strain; Potency, µM (doses to about 92.2 µM), for inactives: at the highest dose activity change, negative = less growth; 360,000 compounds, 0.21% hits; AID 651644; S. pombe RE007 Vpr strain, BacTiter-Glo ATP luminescence, 24 h; control for the full effect not named in the record; active = well fitted falling curve with a large enough effect; inconclusive = small, poorly fitted or top-dose-only effect; inactive = no such curve, though single readings can be large or run the other way;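 further: on the % scale 0 is the no-effect control and ±100 the full control effect; nearly all actives have a fitted effect of over 50% in size; the assay follows cell death caused by Vpr and the record does not say whether a fall means rescue or toxicity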
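Fission yeast RE007 carrying one integrated HIV-1 vpr copy, seeded at OD 0.01 in PMG+AL medium with 23 nL pinned compound. Grown 24 h at 30 degrees; viability read by BacTiter-Glo luminescence after 5 min.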
SARS PLP yeast: blocks SARS-CoV papain-like protease in a yeast assay. S. cerevisiae expressing SARS-CoV PLpro, growth rescue; control for the full effect not named in the record. Potency, µM (doses to about 32.9 µM), for inactives: top-dose activity, positive = growth rescue. 330,000 compounds, 0.19% hits. AID 485353; active means well fitted rising curve with a large enough effect; inconclusive means small, poorly fitted or top-dose-only effect; inactive means no such curve, though single readings can be large or run the other way; further: 0% is about no effect; nearly all actives have a fitted effect of over 55% in size; growth read by luminescence after 48 h
NS1 inh: inhibitors of influenza NS1 protein function; S. cerevisiae slowed by influenza A NS1, growth recovery by OD600; Potency, µM (top dose mostly 46.1 µM), for inactives: at the highest dose activity, positive = more growth; 270,000 compounds, 0.4% hits; active means well fitted rising curve with a large enough effect; inconclusive means small, poorly fitted or top-dose-only effect; inactive means no such curve, though single readings can be large or run the other way; further: nearly all actives have a fitted effect of over 50% in size
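OD600 was taken as the measure of yeast growth restored by compound in an NS1-expressing S. cerevisiae strain. Cells had been washed out of glucose medium and diluted 1:100 into galactose -URA medium, pH 6.0.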
Lassa entry inh: inhibitors of Lassa virus binding or cell entry; Lassa virus pseudotype entry inhibition, cell reporter; control for the full effect not named in the record; AID 540256; 300,000 compounds, 1.2% hits; Potency, µM (series often up to 37.9 µM), inactives show at the top dose activity change, negative = inhibition, actives largely listed as inhibitors; active means well fitted inhibition curve with a large enough effect; inconclusive means small, poorly fitted or top-dose-only effect, or effect the other way; inactive means flat fitted curve, though single readings scatter; tested in HEK293 cells; further: on the % scale 0 is the no-effect control and ±100 the full control effect; nearly all actives have a fitted effect of over 50% in size; luciferase read-out
Active calls of the source: *; u = inconclusive; x = not tested or not shown; & = joins results of further samples; [ ] = another dose, or the depositor's remark. Unless noted, the call rests on the fitted dose curve; in most records, active means well fitted curve in the direction sought with a large enough effect; inconclusive means small, poorly fitted or top-dose-only effect, or another doubt; inactive means no such curve, though single readings can be large; an effect the other way counts as inactive or inconclusive. Potency means the concentration at half of the fitted maximal effect. An unsorted share of the library, and some 4.5% of all compounds hit somewhere here.

SMILES	MARV entry inh	2A StopGo	Cruzain inh noDet	Cruzain inh Det	RE007 growth inh	SARS PLP yeast	NS1 inh	Lassa entry inh
Cc1ccc(S(=O)(=O)NC(C)C(=O)Nc2ccc(C(N)=O)cc2)cc1 (stereo not given)	8%[46.1 µM]	1%	11%	5.4%	1%	-1%	7%	0%
CCCCN(C(=O)CC1CCCCC1)c1c(N)n(CC(C)C)c(=O)[nH]c1=O	-2%	-8%	x	x	-17%	2%	x	1%
CC(=O)/C=C\c1ccc(OC(=O)c2cccnc2)cc1	x	-14%	x	x	-10%	4%	-5%	x
COc1ccc(NC(=O)CN(c2ccccc2)S(=O)(=O)N(C)C)cc1Cl	19%	-4%	x	x	-16%	-1%	5%	u
O=c1oc2ccccc2c2c1ncn2-c1ccccc1	3%	2%	-3%	1.6%	2%	3%	-2%	3%
CCOC(=O)Cc1cc(=O)n2[nH]c(C)c(-c3ccc(OC)cc3)c2n1	14%	-24%	-6%	-1.0%	-4%	-6%	-12%	14%
Cc1cc(N2CCOCC2)ccc1/C=C1\C(=O)NC(=O)N(c2ccccc2)C1=O	15%[46.1 µM]	-16%	x	x	-10%	-2%	7%	-2%[46.1 µM]
COc1ccccc1OCCOc1ccc(C(=O)c2ccccc2)cc1	-29%	u	-14%	-4.9%	-9%	-13%	-3%	u
O=C(NCc1ccc2c(c1)CCN2C(=O)c1ccccc1)c1ccccc1	x	-22%	-1%	1.9%	x	x	x	-24%[46.1 µM]
CC(OC(=O)CCN=C1NS(=O)(=O)c2ccccc21)C(=O)Nc1ccc(F)cc1Cl (stereo not given)	-10%[46.1 µM]	-15%	x	x	2%	x	x	4%
CCOc1ccc(CCNC(=O)Cn2ccc3cc(S(=O)(=O)N4CCCC4)ccc32)cc1	-2%[46.1 µM]	-11%	x	x	1%	-1%	5%	-4%[46.1 µM]
O=C(Nc1sc2c(c1C(=O)O)CCC2)c1cccs1	u	-5%	-6%	-11%	u	-12%	-176%	u
Cc1nc(-c2cccc(F)c2)sc1CCNC(=O)C(=O)Nc1ccc2c(c1)OCCO2	x	u	-11%	0.2%	x	x	x	13%[46.1 µM]
Cn1c(O)c(N=Nc2cccc(S(=O)(=O)N3CCOCC3)c2)c(=O)n(C)c1=O	x	-13%	x	x	-7%	-1%	5%	x
CS(=O)(=O)Nc1cccc(C2=NN(S(C)(=O)=O)C(c3ccccc3)C2)c1 (stereo not given)	-1%[46.1 µM]	20%	x	x	10%	1%	x	0%[46.1 µM]
CC(C)C1Nc2ccc(C(=O)O)cc2C2C=CCC21 (stereo not given)	17%	-20%	x	x	3%	1%	4%	0%
Cc1ccc(-n2[nH]c(C)c(/C=C3/C=Nc4ccccc43)c2=O)cc1C	u	20%	-20%	-3.2%	2%	10%	0%	-17%
CC(=O)c1ccc(NC(=O)COc2ccccc2C(=O)Nc2ccccc2)cc1	u	-18%	x	x	9%	7%	22%	-19%
COc1ccc(NC(=O)c2ccc(COc3ccccc3)o2)cc1	-10%	1%	2%	0.0%	-13%	-4%	-12%	8%
CCCC(C)NC1=NCCCCC1 (stereo not given)	12%	x	2%	-0.2%	5%	0%	15%	14%
COc1ccc(C(=O)N/C(=C\c2ccco2)C(=O)NC2CCS(=O)(=O)C2)cc1 (stereo not given)	6%[46.1 µM]	-21%	x	x	6%	1%	x	0%[46.1 µM]
Cc1cccc(NC(=S)NNC(=O)c2nn(C)cc2Cl)c1	u	25%	-6%	2.8%	12%	-3%	1%	u
Cc1cc(NC(=O)C(C)SCC(=O)N(C)CC(=O)Nc2ccc(Br)cc2C)no1 (stereo not given)	0%	-5%	x	x	2%	-4%	-38%	9%
O=S(=O)(NCc1ccco1)c1ccc2ccccc2c1	-18%[46.1 µM]	40%[activator]	x	x	-2%	-5%	-7%	-4%
COc1ccc(CNC(=O)CCCCCn2c(SCC#N)nc3cc4c(cc3c2=O)OCO4)cc1	-18%&-18%	-5%	u	4.3%	-1%	1%	11µM*	10%
SMILES	MARV entry inh	2A StopGo	Cruzain inh noDet	Cruzain inh Det	RE007 growth inh	SARS PLP yeast	NS1 inh	Lassa entry inh
CC(=O)c1c(C)n(Cc2ccccc2Cl)c2ccc(O)cc12	3%[46.1 µM]	u	x	x	-19%	1%	3%	-6%
O=C(c1ccccc1[N+](=O)[O-])N1CCC(Cc2ccccc2)CC1	u	u	3%	-0.9%	0%	u	9%	-7%
CS(=O)(=O)Nc1ccc(-c2n[nH]c(=S)n2-c2ccccc2)cc1	3%	x	-3%	0.4%	0%	6%	u	0%
CCC1CN(C(=O)N2CCC(C(=O)NCCc3ccccc3)CC2)c2ccccc2O1 (stereo not given)	x	-18%	x	x	0%	9%	-18%	x
CCOc1ccc(S(=O)(=O)N2CCC(C(=O)N3CCc4ccccc4C3)CC2)cc1	-23%	-12%	x	x	-17%	-8%	-19%	u
Fc1ccccc1COc1ccccc1CNCc1ccncc1	u	x	-1%	4.7%	-14%	-12%	-2%	u
COc1ccc(OCCSc2ncn[nH]2)cc1	u	19%	8%	14%	-16%	2%	-15%	u
CC(C)Cc1nc(SCC(=O)N2CC(C)OC(C)C2)c2c(=O)n(C)c(=O)n(C)c2n1 (stereo not given)	-2%	-8%	x	x	-17%	0%	21%	9%
O=C(COC(=O)/C=C/c1ccccc1)NCC1CCCO1 (stereo not given)	12%	-3%	x	x	-7%	2%	x	-6%
O=C(Nc1ccccc1N1CCOCC1)c1ccc(Cl)nc1	4%[46.1 µM]	-11%	x	x	-14%	2%	x	x
Cc1c(C(=O)N2CCN(c3ccccc3)CC2)sc2ncnc(N3CCC(C)CC3)c12	x	x	2%	-3.0%	x	4%	-2%	x
CC(C)N(CCNC(=O)C1CCN(S(=O)(=O)N2CCOCC2)CC1)Cc1ccccc1	-11%&-11%	-8%	-2%	3.3%	-9%	4%	0%	5%
c1ccc2sc(N3CN(CCN4CCOCC4)CN(c4nc5ccccc5s4)C3)nc2c1	-60%	12%	5%	-12%	-8%	13%	-63%	u
CCOC(=O)C(C)(C)N(Cc1ccc(Cl)cc1)S(=O)(=O)c1ccc(Cl)c([N+](=O)[O-])c1	u	x	-4%	-3.6%	x	-43%	-4%	u
Cc1ccc(C(=O)NCCc2cc3ccc(C)c(C)c3[nH]c2=O)cc1[N+](=O)[O-]	-3%	u	11%	-6.9%	-1%	2%	14%	-3%
Cc1ccc(S(=O)(=O)N2CCCC2CNC(=O)C(=O)Nc2ccc(F)cc2)cc1 (stereo not given)	-29%	9%	x	x	-12%	-12%	x	5µM*
Nc1nc(N2CCOCC2)cc(=O)[nH]1	5%	12%	3%	4.8%	-7%	6%	16%	2%
O=C(Nc1nccs1)C(c1ccccc1)N1CCCCC1 (stereo not given)	u	-5%	x	x	3%	1%	5%	10%
CC(CC(=O)O)CC(=O)Nc1ccccc1C(=O)O (stereo not given)	u	-17%	-14%	-2.7%	-2%	-6%	0%	28%[14.3 µM]
COCCCn1c(SCC(=O)n2c(C)c(C)c3ccccc32)nnc1-c1ccoc1C	-18%[46.1 µM]	-30%	u	-2.9%	-7%	-6%	-31%	7%
c1ccc(Nc2cc(Nc3ccccc3)[nH]n2)cc1	u	x	0%	-6.9%	-12%	-2%	4.5µM*	u
N#Cc1nc(-c2cccs2)oc1N1CCN(Cc2ccccc2)CC1	u	x	u	-12%	4%	-2%	-20%	5%
CN1CCCC1CCNc1ccc2oc3ccccc3c(=O)c2c1 (stereo not given)	x	0%	x	x	-10%	-2%	2%	x
O=C(NNC(=O)c1ccc(Cl)c([N+](=O)[O-])c1)c1ccncc1	-33%	-7%	x	x	18%	-1%	-7%	-3%
CC1Cc2cc(-c3csc(NC(=O)Cc4cccs4)n3)ccc2N1S(C)(=O)=O (stereo not given)	u	5.6µM*	u	-2.5%	-14%	-3%	-3%	u
SMILES	MARV entry inh	2A StopGo	Cruzain inh noDet	Cruzain inh Det	RE007 growth inh	SARS PLP yeast	NS1 inh	Lassa entry inh
CCN(Cc1ccncc1)C(=O)c1cc(COc2ccc(C)c(C)c2)on1	u	-17%	x	x	-4%	-11%	-52%	-19%[46.1 µM]
CCC(CC)C(=O)c1c[nH]c(C(=O)NCc2ccco2)c1	-7%	17%	-3%	6.3%	1%	0%	0%	u
CC(C)C[C@@H](CO)N1CCN(Cc2ccc([N+](=O)[O-])cc2)CCC1=O	x	-16%	x	x	-2%	2%	-12%	x
COCCNc1nc2c(c(=O)n(Cc3ccccc3F)c(=O)n2C)n1C	x	-2%	x	x	4%	1%	-3%	x
C=CCOc1nc2c(c(=O)n(C)c(=O)n2C)n1Cc1ccc(Cl)cc1	u	-25%	-4%	1.6%	2%	25%	2%	-1%
Cc1nc(N=Nc2ccc(S(=O)(=O)O)cc2S(=O)(=O)O)c(COP(=O)(O)O)c(C=O)c1O	u	7%&-16%	2%&-6%	-2.3%&-0.2%	x	x	-1%	6%
CC(=O)O/N=C/c1c(N2CCOCC2)n(C)c2ccccc12	u	-13%	9%	3.3%	u	-23%	-105%	u
O=CNCCCc1nc2ccccc2n1CCc1ccccc1	u	-11%	x	x	-2%	0%	4%	3%
O=C(c1cc(F)c(F)c(F)c1F)N1CCN(C(=O)C2CCCO2)CC1 (stereo not given)	8%	-2%	x	x	7%	1%	x	7%
CCN(CC)c1ccc(/C=N/NC(=S)NCc2ccccc2)cc1	u	-17%	u	0.6%	-21%	12%	0%	u
CC(=O)Oc1ccc2c(=O)c(-c3ccccc3)coc2c1	u	33%[activator]	x	x	9%	-5%	x	u
CC(C)Cn1c(-c2cc([N+](=O)[O-])ccc2Cl)nc2c1c(=O)[nH]c(=O)n2Cc1ccccc1	-22%	u	-9%	-2.8%	33%	6%	-11%	u
CCCCNC(=O)CNC(=O)c1nn(-c2ccc(OC)cc2OC)c(=O)c2ccccc12	x	-7%	x	x	4%	0%	0%	x
CC(C)(C)OC(=O)N/N=C\c1cccnc1	20%[46.1 µM]	3%	x	x	13%	-2%	x	13%
Cc1nc(C)c(C(=O)Nc2cccc(Cl)c2)o1	-3%	4%	-5%	3.0%	-3%	7%	1%	-4%

Screening data deposited in PubChem BioAssay by National Center for Advancing Translational Sciences (NCATS).
